# Compound activity from PubChem BioAssay.
# PABP FP inh = PABP poly(A) RNA binding inhibitors, primary screen, biochemical, fluorescence polarization, uHTS | Polyadenylate-binding protein 1 (Homo sapiens), P11940 | inhibition, % at 35 µM | 290,000 tested, 1% active;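 active = 50% or more with normal probe brightness, or confirmed in later tests; inconclusive = above 50% with abnormal brightness, or retests that disagree; inactive = below 50% or failed in later tests; about a fifth of its hits are not listed in these tables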;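 also: calls also rest on retests at 20 µM and on dose response follow-up; controls were probe without protein and protein plus probe with vehicle; some compounds called inactive have numbers as strong as hits; many hits fall short of the cut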
# Target sequence (P11940 whole entry, looked up): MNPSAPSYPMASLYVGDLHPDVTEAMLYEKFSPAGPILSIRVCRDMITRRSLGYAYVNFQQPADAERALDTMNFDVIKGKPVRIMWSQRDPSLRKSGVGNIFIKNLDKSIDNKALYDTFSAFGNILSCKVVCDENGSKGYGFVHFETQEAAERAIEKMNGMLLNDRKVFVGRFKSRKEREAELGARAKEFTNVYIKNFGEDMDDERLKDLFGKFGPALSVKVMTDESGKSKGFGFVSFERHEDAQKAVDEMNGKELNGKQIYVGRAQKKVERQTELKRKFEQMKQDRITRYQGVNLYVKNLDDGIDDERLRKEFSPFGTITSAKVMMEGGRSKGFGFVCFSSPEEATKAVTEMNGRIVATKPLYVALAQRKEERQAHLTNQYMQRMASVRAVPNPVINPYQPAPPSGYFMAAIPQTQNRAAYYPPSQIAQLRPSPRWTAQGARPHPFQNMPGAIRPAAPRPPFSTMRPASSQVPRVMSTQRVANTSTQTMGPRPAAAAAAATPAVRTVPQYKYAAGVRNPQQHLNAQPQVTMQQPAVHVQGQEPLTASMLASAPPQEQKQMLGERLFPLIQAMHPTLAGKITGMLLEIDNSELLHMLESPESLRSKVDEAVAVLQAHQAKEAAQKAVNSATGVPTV
# Rce1 inhib = yeast Rce1p protease inhibitors, primary screen, biochemical, fluorescence, cell-free homogeneous; CAAX prenyl protease 2 (Saccharomyces cerevisiae (strain ATCC 204508 / S288c)), Q03530; yeast membranes, quenched prenylated peptide cleavage fluorescence; calls only; 290,000 tested, 0.27% active; AID 2563, 2010;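 active = fall in fluorescence gain of 50% or more versus controls, with final raw signal at or below 3038400; inconclusive = same 50% fall but final raw signal above 3038400; inactive = fall in fluorescence gain under 50%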;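 also: plate controls were neutral control wells for no effect and wells lacking membranes for full effect; tested at 10 µM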
# Target sequence (Q03530 whole entry, looked up): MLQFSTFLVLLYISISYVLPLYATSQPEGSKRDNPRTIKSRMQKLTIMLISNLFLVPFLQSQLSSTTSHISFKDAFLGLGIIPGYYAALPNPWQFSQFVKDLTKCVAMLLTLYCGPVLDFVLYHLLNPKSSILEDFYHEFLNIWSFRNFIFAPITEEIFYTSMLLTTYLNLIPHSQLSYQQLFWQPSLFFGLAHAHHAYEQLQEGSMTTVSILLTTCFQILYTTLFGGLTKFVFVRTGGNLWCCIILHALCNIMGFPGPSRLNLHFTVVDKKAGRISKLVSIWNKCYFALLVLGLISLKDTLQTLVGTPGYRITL
# Env fusion inh = inhibitors of HIV-1 Env-driven cell-cell fusion, primary screen, HeLa-JRFL effector, CEM21 target cells, luciferase | inhibition, % at 12.3 µM | 360,000 tested, 1.1% active;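 active = mean replicate inhibition score of at least 50 and every replicate individually at or above 50; inconclusive = only one of the two criteria met; inactive = mean below 50 and not all replicates reaching 50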;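 also: 0% = plate neutral controls and 100% = maraviroc near 300 nM; one replicate is shown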
# MT1-MMP act inh = blockers of MT1-MMP proenzyme processing, primary screen, HT1080 RFP-PRO-GFP cells, GFP/RFP fluorescence; GFP/RFP ratio fluorescence, overnight; percent of plate control window, DMSO zero; GFP/RFP ratio change, % at 20 µM; 360,000 tested, 0.061% active;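 active = GFP/RFP ratio change of at least 30% with cell ATP level not reduced by more than half and red fluorescence within 50% of control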; also: strong numbers were not always called active
#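 system = RFP-PRO-GFP reporter HT1080 cells | dosing = 20 µM single dose, 1% DMSO | timing = overnight cell settling, then overnight compound exposure, 37 °C, 5% CO2 | read-out basis = GFP/RFP fluorescence ratio | controls = DMSO and RFP-L50D-GFP cell wells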
# CSC inhib = cancer stem cell viability inhibitors, primary screen, luminescence | cancer stem cell-like cells viability | inhibition, % at 7.5 µM | 300,000 tested, 1.1% active;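 active = mean at 75% or more and at least half the replicates too; inconclusive = mean and replicates disagree; tested in HMLE shEcad cells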;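 also: 0% = median of negative and 100% = median of positive control wells; the first replicate is given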
# UUG fidelity = modulators of yeast start codon fidelity, primary screen, whole organism, S. cerevisiae, single point, plate reader | S. cerevisiae UUG-firefly luciferase reporter, luminescence/redox ratio | activity score, % at 18.7 µM | 350,000 tested, 0.13% active | AID 602363, 2012;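 active = replicate mean at a twofold rise or more, about +100% in these data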;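 also: firefly luciferase made from a UUG start codon reports start codon fidelity; reporter light over untreated wells divided by growth signal over untreated wells; some hits fall short of that in this replicate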
# eIF4H inh = human eIF4H binding inhibitors, primary screen, translation initiation inhibitor project, biochemical, uHTS, fluorescence polarization; Eukaryotic translation initiation factor 4H (Homo sapiens), Q15056; inhibition, % at 35 µM; 290,000 tested, 0.94% active; AID 2012, 2009; eIF4H fluorescence polarization binding assay;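 active = 50% or more with normal probe brightness, or confirmed in later tests; inconclusive = above 50% with abnormal brightness, or retests that disagree; inactive = below 50% or failed in later tests; about a fifth of its hits are not listed in these tables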;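 also: calls also rest on retests at 20 µM and on dose response follow-up; 0% = protein and probe with vehicle and 100% = probe without protein; strong numbers were not always called active; many hits fall short of the cut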
# eIF4H inh retest = recorded beside eIF4H inh, whose call it bears; inhibition, %; compound at 20 µM; confirmation average;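 mean of two retest wells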
# PABP FP inh retest = also measured in PABP FP inh; calls as there; inhibition, %; compound at 20 µM; confirmation repeats;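 mean of two retest wells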
# MT1-MMP act inh RFP = second read-out of MT1-MMP act inh, no call of its own (marks repeat the call); RFP signal change, %; measured here: RFP expression control read;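 0 = vehicle wells; hits needed this value within 50% of zero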
# * marks the source's active call; other numbers are inactive results; i = inactive; ? = inconclusive; · = no result given; & = joins results of further samples. Outcome played no part in choosing rows; overall some 3% were active at least once.
SMILES,PABP FP inh,Rce1 inhib,Env fusion inh,MT1-MMP act inh,MT1-MMP act inh RFP,CSC inhib,UUG fidelity,eIF4H inh,others
CN(C)CCNC(=O)COc1ccc(Cl)cc1Cl,3,i,7,4,5,-20,-4,4,
COc1ccc(NC2=C3CCCC=C3N(c3ccc(OC)cc3)C2=O)cc1,3,i,15,0,1,21,-13,4,
COC(=O)CN(c1ccccc1)S(=O)(=O)c1cc(Br)ccc1OC,0,i,-5,-8,-3,-23,-4,13,
CSC(=CC(=O)c1ccc(F)cc1)SC,-6,i,-3,-1,-2,2,·,-9,
Cc1ccc(C(=O)N2N=C(c3ccccc3)CC2(O)C(F)(F)F)o1 (configuration not stated),-2,i,-6,2,-1,-6,-5,-7,
CCOC(=O)c1ccc2c(c1)n(CC)c(C)[n+]2CC,47,i,1,-2,2,-7,·,-5,
O=C(CCc1ccccc1)NCCS(=O)(=O)N1CCN(c2ccccc2)CC1,·,i,6,-1,-2,-6,-9,·,
COc1cc(C2NC(=S)NC3=C2C(=O)CCC3)ccc1O (configuration not stated),7,i,4,0,-2,-7,-11,1,
COc1ccc(S(=O)(=O)Nc2ccccc2C(=O)N2CCCC2)cc1OC,9,i,6,-5,-5,-12,4,-1,
CCOC(=O)N1CCN(c2nc3ccccc3nc2C(C#N)S(=O)(=O)c2ccc(C)cc2)CC1 (configuration not stated),118*,i,·,-22,-15,36,·,122*,eIF4H inh retest=91*;PABP FP inh retest=95*
COc1ccc(/C=N/NC(=O)c2csc(-n3nc(C)cc3C(F)(F)F)n2)cc1,-10,i,-123,1,-2,54,-19,-8,
NC(=O)c1cccc2c1-c1ccccc1/C2=N/NC(N)=S,5,i,-21,5,-1,-9,·,-12,
COc1ccccc1NC(=O)N(Cc1cccs1)Cc1cc2cc3c(cc2[nH]c1=O)OCO3,-17,i,-39,4,-22,-18,·,-12,
Cc1ccc(NC(=O)c2csnn2)c(C)c1,-4,i,-104,5,6,-4,-20,1,
CCCCNC(=O)NNC(=O)c1ccco1,-5,i,-2,-3,2,-7,-10,-2,
CN(CC(=O)Nc1ccc(Cl)c(C(F)(F)F)c1)C(=O)Cc1ccsc1,·,i,-5,-2,-6,10,-13,·,
N/C(Cc1nc(-c2ccc(Cl)cc2)cs1)=N/O,-10,i,-26,3,-4,·,·,-7,
CCOC(=O)N/N=C(\C)c1ccc(-n2cnnn2)cc1,3,i,7,-1,3,13,2,-2,
COc1ccc(C)c2sc(N(CCN(C)C)C(=O)c3ccc4ccccc4c3)nc12,-9,i,0,2,4,17,4,-5,
COC(=O)CNC(=O)C(C)NC(=O)OCc1ccccc1 (configuration not stated),-4,i,-19,6,3,-7,-9,-12,
Cc1cs/c(=N\N=C2CCCCC2)n1Cc1ccco1,8,i,4,-6,3,-15,·,-3,
CCN(CC)CCC(c1ccc2c(c1)OCO2)c1c(OC)cc(OC)c2ccc(=O)oc12 (configuration not stated),2,i,-9,7,1,2,8,0,
CSc1nnc(NC(=O)c2ccc3c(c2)OCO3)s1,4,i,13,-2,-1,4,-18,-5,
COc1cc2[nH]c(=S)n(C3CC3)c(=O)c2cc1OC,-8,i,25,1,-3,-5,-17,-11,
CC1=NN(c2nc(C)cc(C)n2)C(=O)C1CCC(C)C (configuration not stated),-7,i,-32,1,2,-11,-18,1,
CCOc1ccc(C2C(C(C)=O)=C(O)C(=O)N2CCc2c[nH]c3ccccc23)cc1 (configuration not stated),11,i,6,8,5,0,·,1,
CCOC(=O)CSc1nc(=O)n2cc(C)ccc2n1,2,i,13,1,3,-10,·,-5,
COc1ccc(N2CCN(C(=O)c3ccccc3)CC2)c([N+](=O)[O-])c1,20,i,10,5,-1,0,-4,-3,
O=C(NCc1ccc2c(c1)OCO2)c1cccnc1,-16,i,16,-1,3,-14,-23,-4,
CN(CCOc1ccccc1)CC(=O)Nc1cccc(Br)c1,-3,i,-8,-2,2,-5,·,-2,
Clc1cccc(OCCCN2CCCC2)c1Cl,2,i,8,2,1,1,·,0,
CSc1cccc(NS(=O)(=O)c2cn(C)cn2)c1,-8,i,0,-3,5,18,-12,-4,
CC(=O)N1c2ccc(S(=O)(=O)N3CCC(C(=O)Nc4cccc(F)c4)CC3)cc2CC1C (configuration not stated),-3,i,5,0,-19,-7,-1,-15,
COc1ccc(Cn2c(=O)c3cccnc3n(Cc3ccc([N+](=O)[O-])cc3)c2=O)cc1,4,i,11,-3,-1,20,-10,8,
Cc1onc(-c2ccccc2)c1C(=O)NNC(=S)NC(=O)c1ccc(F)cc1,2,i,·,4,-1,4,·,11,
N#CCNC1CC(=O)N(c2ccc(F)cc2)C1=O (configuration not stated),0,i,8,1,-3,-12,-9,2,
COc1cc(CNC(=O)c2cc(-c3cc(F)ccc3OCC3CCCO3)n[nH]2)cc(OC)c1 (configuration not stated),·,·,14,4,-2,·,-14,·,
CCN(CC)CCCN1C(=O)C2C(C(=O)Nc3ccc(C(C)C)cc3)C3C=CC2(O3)C1C(=O)NC1CCCCC1 (configuration not stated),-1,·,3,1,-1,-9,-1,-9,
CC12CCC(C(=O)NCc3ccccc3Cl)(CC1=O)C2(C)C (configuration not stated),-5,i,4,-2,1,-10,-5,8,
COc1ccc(-c2noc(CCC(=O)NCCN(C)Cc3ccccc3)n2)cc1,14,i,·,-1,2,-14,5,-2,

# Part of the list above in order of molar mass, low to high:
SMILES,PABP FP inh,Rce1 inhib,Env fusion inh,MT1-MMP act inh,MT1-MMP act inh RFP,CSC inhib,UUG fidelity,eIF4H inh,others
N#CCNC1CC(=O)N(c2ccc(F)cc2)C1=O (configuration not stated),0,i,8,1,-3,-12,-9,2,
O=C(NCc1ccc2c(c1)OCO2)c1cccnc1,-16,i,16,-1,3,-14,-23,-4,
Clc1cccc(OCCCN2CCCC2)c1Cl,2,i,8,2,1,1,·,0,
CC12CCC(C(=O)NCc3ccccc3Cl)(CC1=O)C2(C)C (configuration not stated),-5,i,4,-2,1,-10,-5,8,
COc1ccc(N2CCN(C(=O)c3ccccc3)CC2)c([N+](=O)[O-])c1,20,i,10,5,-1,0,-4,-3,
CN(CCOc1ccccc1)CC(=O)Nc1cccc(Br)c1,-3,i,-8,-2,2,-5,·,-2,
COc1ccc(-c2noc(CCC(=O)NCCN(C)Cc3ccccc3)n2)cc1,14,i,·,-1,2,-14,5,-2,
COc1ccc(Cn2c(=O)c3cccnc3n(Cc3ccc([N+](=O)[O-])cc3)c2=O)cc1,4,i,11,-3,-1,20,-10,8,
COc1cc(CNC(=O)c2cc(-c3cc(F)ccc3OCC3CCCO3)n[nH]2)cc(OC)c1 (configuration not stated),·,·,14,4,-2,·,-14,·,
CC(=O)N1c2ccc(S(=O)(=O)N3CCC(C(=O)Nc4cccc(F)c4)CC3)cc2CC1C (configuration not stated),-3,i,5,0,-19,-7,-1,-15,
CCN(CC)CCCN1C(=O)C2C(C(=O)Nc3ccc(C(C)C)cc3)C3C=CC2(O3)C1C(=O)NC1CCCCC1 (configuration not stated),-1,·,3,1,-1,-9,-1,-9,

# The main list resumes, repeating the 2 entries before the break.
SMILES,PABP FP inh,Rce1 inhib,Env fusion inh,MT1-MMP act inh,MT1-MMP act inh RFP,CSC inhib,UUG fidelity,eIF4H inh,others
CC12CCC(C(=O)NCc3ccccc3Cl)(CC1=O)C2(C)C (configuration not stated),-5,i,4,-2,1,-10,-5,8,
COc1ccc(-c2noc(CCC(=O)NCCN(C)Cc3ccccc3)n2)cc1,14,i,·,-1,2,-14,5,-2,
COc1cccc(C(=O)CN2CCN(S(=O)(=O)c3ccc(Br)cc3)CC2)c1,-6,i,·,-1,1,-9,0,-5,
CCOc1ccc(NC(=O)C/C(C)=N/NC(=O)Cc2cccs2)cc1,-2,i,-5,1,2,-13,40,3,
O=C(NC1CCCC1)C1CCN(S(=O)(=O)c2cccc3cccnc23)CC1,8,i,?,5,13,-10,-1,-10,
COc1ccccc1C(=O)NC1CC(C)(C)NC(C)(C)C1,-16,i,2,1,0,-10,-12,4,
O=C(Nc1nccs1)C1CC(=O)N(CCc2ccc(F)cc2)C1 (configuration not stated),-5,i,1,3,4,-3,-10,8,
CC1Sc2ccc(S(=O)(=O)CCC(=O)Nc3ccccn3)cc2NC1=O (configuration not stated),-2,i,-4,0,3,14,-15,-6,
CCOC(=O)C1CCN(S(=O)(=O)c2cc(Cl)c(C)cc2OC)CC1,-13,i,·,5,-1,-5,12,2,
O=[N+]([O-])c1cccc(CN2CCN(c3cccc4[nH]ccc34)CC2)c1,14,i,-10,4,4,-3,-11,-6,
Cc1cc(C)cc(Oc2ccc(N)cc2)c1,0,i,14,-3,-1,21,-23,-8,
Cc1ccc(C)c(SCC(=O)c2ccc[nH]2)c1,-4,·,18,-1,0,0,·,2,
CCCCC(=O)N(C)c1c(C)nc2ccc(C(=O)N(C)Cc3ccco3)cn12,·,·,4,-1,4,·,4,·,
CC(=O)Oc1cccc(N2C(=O)c3ccc(C(=O)O)cc3C2=O)c1,4,i,-25,0,2,-7,25,-5,
CCN1CCN(Cc2ccc(NC(=O)c3cc(NC(=O)c4cc(C)on4)cc(OC)c3)cc2C(F)(F)F)CC1,-9,i,·,1&6,-1&-1,-1,4&15,8,
O=C(COC(=O)c1cc(=O)[nH]c2ccccc12)Nc1nc(-c2ccccc2)cs1,8,i,-11,-2,0,-8,-20,7,
Cn1c(=O)c2cc(S(=O)(=O)Nc3cc(C(=O)O)cc(C(=O)O)c3)ccc2n(C)c1=O,2,i,5,1,3,-2,·,-5,
COC(=O)CNC(=O)C1(C)C=CCN1C(=O)c1ccccc1 (configuration not stated),14,i,-98,-1,0,1,-16,2,
O=C(COC(=O)/C=C/c1ccc(S(=O)(=O)N2CCOCC2)cc1)NCc1ccc2c(c1)OCO2,59,i,8,-2,0,-4,·,9,eIF4H inh retest=-13;PABP FP inh retest=6
Cc1cc(C)c(C#N)c(SCC(=O)Nc2cc(C)on2)n1,·,·,·,5,1,0,-22,·,
Cc1ccc(-n2c3nc(=O)n(C)c(=O)c-3cc3ccccc32)cc1,22,i,-14,2,2,-10,-22,1,
CCCOc1ccc(C(C)=O)cc1CC(C(=O)OCC)C(=O)OCC,0,i,-152,1,6,3,-12,-3,
Cc1ccc2c(c1)C(c1ccc(F)cc1)N(C(=O)c1ccccc1Br)CC(=O)N2 (configuration not stated),-8,i,20,-4,-9,-12,7,-15,
CCOC(=O)N1CCN(C(=O)CNC(=O)c2nn(-c3ccc(OC)cc3)c(=O)c3ccccc23)CC1,-4,·,-133,3,2,3,·,-7,
Brc1cccc(-c2nc3ccc(Br)cn3c2Cc2ccccc2)c1,·,·,-2,-3,2,·,-13,·,
CNC(=O)n1cc(C)c(-c2cccs2)n1,1,i,11,2,6,-11,-17,-11,
Cc1ccc(N2CC(C(=O)Nc3ccc(S(=O)(=O)N4CCOCC4)cc3)CC2=O)cc1Cl (configuration not stated),·,i,-1,3,3,-9,-4,·,
